# High-throughput results deposited in PubChem BioAssay by National Center for Advancing Translational Sciences (NCATS).
# Cruzain inh Det: inhibitors of Trypanosoma cruzi cruzain with detergent. Potency, µM, for the others: max response, negative = inhibition, actives largely listed as inhibitors. AID 1478. hit rate 0.43% among 200,000. P25779. purified cruzain, Z-FR-AMC fluorescence, 0.01% Triton;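 note: plate controls were neutral wells for no effect and buffer without enzyme for full effect; nearly all actives have a fitted effect of over 40% in size; top concentration of the series not given in the record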
# Target sequence (P25779 123-467 limits assumed): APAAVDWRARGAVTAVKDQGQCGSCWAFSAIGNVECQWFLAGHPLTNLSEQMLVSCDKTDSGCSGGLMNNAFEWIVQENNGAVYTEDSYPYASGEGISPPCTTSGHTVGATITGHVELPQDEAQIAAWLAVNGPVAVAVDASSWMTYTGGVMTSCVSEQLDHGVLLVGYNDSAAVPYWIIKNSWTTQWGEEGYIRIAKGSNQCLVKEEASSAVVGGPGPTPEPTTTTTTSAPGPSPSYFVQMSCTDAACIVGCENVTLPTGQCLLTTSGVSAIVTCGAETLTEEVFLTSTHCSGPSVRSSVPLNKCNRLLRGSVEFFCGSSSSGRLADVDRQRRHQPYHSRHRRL
#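 In this qHTS format, compounds are incubated with 1.5 nM cruzain for 15 min at room temperature before 2 uM Z-FR-AMC is added. Release of AMC is followed at 360/450 nm, and progress is taken as the 60 s fluorescence difference.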
# Marburg entry inh: blocks Marburg virus binding to or entry into cells. AID 540276. Potency, µM (highest dose often 37.8 µM), for inactives: at the highest dose activity change, negative = inhibition, usual class: inhibitors. hit rate 1.8% among 300,000. Marburg virus pseudotyped entry inhibition, cell reporter; control for the full effect not named in the record; about a third of the inactives were read at about 46 µM; active = well fitted inhibition curve with a large enough effect; inconclusive = small, poorly fitted or top-dose-only effect, or effect the other way; inactive = flat fitted curve, though single readings scatter; tested in HEK293 cells; about a fifth of its hits are not listed in these tables; note: % is set by controls: 0 for no effect and ±100 for the full control effect; luciferase read-out
# NS1 function inh: influenza NS1 inhibition; S. cerevisiae slowed by influenza A NS1, growth recovery by OD600; Potency, µM (doses to about 46.1 µM), for the others: at the highest dose activity, positive = more growth; hit rate 0.4% among 270,000; AID 2326; active means well fitted rising curve with a large enough effect; inconclusive means small, poorly fitted or top-dose-only effect; inactive means no such curve, though single readings can be large or run the other way; note: nearly all actives have a fitted effect of over 50% in size
#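 Compounds were scored for reversing the slow growth caused by influenza A NS1 in S. cerevisiae, measured by optical density at 600 nm. Assay medium contained 2% galactose at pH 6.0; NS1-free yeast of the same strain were the positive control.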
# SARS PLpro yeast: inhibitors of SARS-CoV papain-like protease in yeast. Potency, µM (top dose mostly 32.9 µM), inactives show top-dose activity, positive = growth rescue. S. cerevisiae expressing SARS-CoV PLpro, growth rescue; control for the full effect not named in the record. AID 485353. hit rate 0.19% among 330,000; active means well fitted rising curve with a large enough effect; inconclusive means small, poorly fitted or top-dose-only effect; inactive means no such curve, though single readings can be large or run the other way; note: 0% is about no effect; nearly all actives have a fitted effect of over 55% in size; growth read by luminescence after 48 h
# Cruzain inh noDet: inhibitors of Trypanosoma cruzi cruzain without detergent | hit rate 2.3% among 200,000 | AID 1476 | purified cruzain, Z-FR-AMC fluorescence, no detergent | P25779 | Potency, µM, for the others: max response, negative = inhibition, actives largely listed as inhibitors;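 note: plate controls were enzyme without inhibitor for no effect and buffer without enzyme for full effect; nearly all actives have a fitted effect of over 40% in size; top concentration of the series not given in the record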
#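 Purified cruzain at 1.5 nM, pre-incubated 15 min with compound at room temperature in 100 mM sodium acetate pH 5.5, 5 mM DTT, 0.00005% Triton X-100. Reaction started with 2 uM Z-FR-AMC; AMC fluorescence increase over 60 s gives rate.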
# 2A StopGo: lowers the luciferase signal of an FMDV 2A StopGo reporter | AID 1159524 | Potency, µM (titrated, usually from 57.9 µM), for the others: at the highest dose signal change, negative = less light | hit rate 1.2% among 410,000 | human cells with a luciferase reporter of 2A StopGo recoding; control for the full effect not named in the record; active = well fitted falling curve with a large enough effect; inconclusive = small, poorly fitted or top-dose-only effect; inactive = no such curve, though single readings can be large or run the other way; tested in HEK293T cells; note: % is set by controls: 0 for no effect and ±100 for the full control effect; nearly all actives have a fitted effect of over 45% in size; luciferase light after 4 h
# RE007 growth inh: less growth of the S. pombe RE007 Vpr strain | Potency, µM (series often up to 92.2 µM), inactives show top-dose activity change, negative = less growth | hit rate 0.21% among 360,000 | S. pombe RE007 Vpr strain, BacTiter-Glo ATP luminescence, 24 h; control for the full effect not named in the record; active = well fitted falling curve with a large enough effect; inconclusive = small, poorly fitted or top-dose-only effect; inactive = no such curve, though single readings can be large or run the other way;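 note: % is set by controls: 0 for no effect and ±100 for the full control effect; nearly all actives have a fitted effect of over 50% in size; the assay follows cell death caused by Vpr and the record does not say whether a fall means rescue or toxicity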
#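 Fission yeast strain RE007, carrying one chromosomally integrated HIV-1 vpr copy, was seeded at OD 0.01 in PMG+AL medium with 23 nL pinned compound. After 24 h at 30 °C and 99% humidity, viability was read by BacTiter-Glo luminescence.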
# LASV entry inh: inhibitors of Lassa virus binding or cell entry; Lassa virus pseudotype entry inhibition, cell reporter; control for the full effect not named in the record; Potency, µM (series often up to 37.9 µM), without a hit: at the top dose activity change, negative = inhibition, usual class: inhibitors; hit rate 1.2% among 300,000; AID 540256; active means well fitted inhibition curve with a large enough effect; inconclusive means small, poorly fitted or top-dose-only effect, or effect the other way; inactive means flat fitted curve, though single readings scatter; tested in HEK293 cells; note: % is set by controls: 0 for no effect and ±100 for the full control effect; nearly all actives have a fitted effect of over 50% in size; luciferase read-out
# * = called active by the depositor; ? = inconclusive; · = not tested or not shown; & = joins results of further samples; [ ] = dose if it differs, or a comment. Unless noted, calls come from the whole dose curve; as a rule, active = well fitted curve in the direction sought with a large enough effect; inconclusive = small, poorly fitted or top-dose-only effect, or another doubt; inactive = no such curve, though single readings can be large; an effect the other way counts as inactive or inconclusive. Potency is the fitted concentration of half-maximal effect.
SMILES,Cruzain inh Det,Marburg entry inh,NS1 function inh,SARS PLpro yeast,Cruzain inh noDet,2A StopGo,RE007 growth inh,LASV entry inh
N#CCSc1nnc(Cc2cccs2)n1C1CCCCC1,0.1%,-13.9%,2.1%,0.1%,-1.1%,-0.8%,-12.5%,-13.5%
COc1cc(S(=O)(=O)Nc2cc(C)cc(C)c2)ccc1F,-6.4%,?,-22.2%,-2.9%,-7.5%,32.9%[activator],13.5%,-18.9%
CC(CCc1ccccc1)NC(=O)CNC(=O)COc1ccccc1 (stereo not drawn),·,22.5%[46.1 µM],-2.6%,-3.8%,·,-1.5%,15.0%,?
Cc1cc(C(=O)COC(=O)CNC(=O)c2ccc(Cl)c(Cl)c2)c(C)n1Cc1ccco1,10µM*,?,3.5%,18.7%,-12.5%,0.0%,-26.1%,?
Cc1cccc(NC(=O)Cn2c(=O)n(CCC(C)C)c(=O)c3cccnc32)c1,7.8%,?,·,·,-11.5%,-11.3%,·,·
CC(=O)c1ccc2oc3ccccc3c(=O)c2c1,·,·,-15.4%,-14.7%,·,41.8%[activator],0.3%,·
Cc1cc(/C=C(\C#N)C(=O)NCCc2c[nH]c3ccccc23)c(C)n1C,-7.9%,-39.8%,-2.3%,5.9%,-0.2%,-12.9%,-1.3%,-17.1%
COc1ccc(-c2csc3ncnc(Nc4ccc(OC)c(OC)c4)c23)cc1,-2.8%,·,·,·,8.5%,?,·,-42.4%[46.1 µM]
BrC(=C\c1ccccc1)/C=N/N1CCN(Cc2ccccc2)CC1,-0.4%,1.1%,-31.4%,-17.5%,-0.3%,0.0%,-3.1%,-12.7%
COc1cccc(/C=C/C(=O)OCC(=O)NCCC2=CCCCC2)c1,·,?,-41.8%,-1.0%,·,-8.3%,-12.5%,?
O=c1c(Cc2ccc(F)cc2)c(O)ccn1CC1CCCO1 (stereo not drawn),·,11.5%,·,0.7%,·,-6.4%,10.2%,0.7%
NS(=O)(=O)c1ccc(CNC(=S)Nc2ccc(F)c(Cl)c2)cc1,·,-25.1%[46.1 µM],·,6.7%,·,-21.8%,5.2%,21.6%[46.1 µM]
C/C(CCN1CCCCc2nc(C)c(C)cc21)=N\O[C@@H](C)c1cn([C@H](CO)Cc2ccccc2)nn1,1.9%,-28.0%,-6.3%,-6.1%,17.4%,·,·,-22.4%
O=C(Cc1ccccc1)Nc1c(C(=O)N2CCCCCC2)cnn1-c1ccccc1,-0.1%,-26.3%,-1.0%,12.9%,?,22.4%,-3.9%,?
CC(C)Cn1c2c(c(O)c(C(=O)Nc3nccs3)c1=O)CCCC2,-4.3%,-24.5%,-35.1%,2.6%,9.6%,-11.9%,?,-18.2%
O=C(Nc1cccc(F)c1)C1CCCN(S(=O)(=O)c2cnc[nH]2)C1 (stereo not drawn),·,·,7.0%,-0.9%,·,-20.5%,10.6%,·
O=C(O)CCN1C(=O)C2C3C=CC(C3)C2C1=O (stereo not drawn),7.1%,?,1.2%,-1.7%,4.7%,5.7%,-1.4%,?
Cc1ccccc1/C=C\c1nc2ccccc2c(=O)n1Cc1ccccc1,-15.5%,?,-10.2%,7.7%,-9.8%,?,-2.3%,4.9%
CCOc1ccccc1N(CC(=O)NC1CCCCC1)S(=O)(=O)c1ccc(C)cc1,·,3.16µM*,-21.7%,4.7%,·,15.1%,-6.2%,?
O=C(COC(=O)CN1C(=O)C2CCCCC2C1=O)NNC(=O)c1ccc(Cl)cc1 (stereo not drawn),·,5.7%,·,2.3%,·,-14.0%,6.8%,7.8%
CC1(C)Cc2ccccc2-c2nnc(SCC(=O)N3CCc4ccccc43)n21,8.0%,-5.2%,8.2%,-3.7%,-10.8%,-26.2%,-4.6%,-0.1%
COc1c(C)cc(Br)cc1C(=O)Nc1ccc(Cc2ccncc2)cc1,·,?,·,-3.8%,·,?,5.3%,-27.7%[46.1 µM]
CCOC(=O)N1CCC(NC(=O)Cn2cccc2C(=O)c2ccccc2)CC1,-4.2%,-3.2%,3.9%,18.0%,6.1%,-0.3%,19.0%,19.8%
CCCC(=O)NC(=S)Nc1ccc(NC(=O)C(C)C)c(OC)c1,-2.3%,·,-3.5%,6.7%,-3.2%,5.4%,6.5%,·
COCCN(C(=O)COC(=O)c1oc2ccc(OC)cc2c1C)c1c(N)n(Cc2ccccc2)c(=O)[nH]c1=O,·,?,-2.3%,2.3%,·,-16.1%,5.8%,1.8%
Cc1cccc(NC(=O)c2cc(-c3cc(C)cc(C)c3O)n[nH]2)c1,·,·,2.9%,0.1%,·,-9.6%,10.9%,·
O=[N+]([O-])c1ccc(S(=O)(=O)N2CCN=C2SCc2cccnc2)cc1,·,1.6%[46.1 µM],·,0.7%,·,0.0%,0.5%,?
CCCCN1CN=C(Nc2nc3ccccc3o2)NC1,0.2%,15.3%,2.8%,-1.1%,5.9%,57.7%[activator],4.2%,49.2%[14.3 µM]
COc1ccccc1N1CCN(C(=O)c2ccc(NC(C)=O)cc2)CC1,0.4%,12.8%,0.5%,2.5%,-10.9%,-3.6%,7.7%,-4.1%
CCC(=O)NC(NC(=O)CC)C(Cl)Cl,3.5%,?,8.5%,1.2%,2.5%,13.5%,6.2%,11.7%
CCOC(=O)c1cc(C)n(CC2CCC(C(=O)Nc3cc(OC)cc(OC)c3)CC2)c1C (stereo not drawn),-6.1%,·,·,·,-8.2%,-18.1%,·,?
O=P(/C(=N/O)N1CCCCC1)(N1CCOCC1)N1CCOCC1,-5.1%,1.0%,-5.4%,9.8%,-4.3%,-13.2%,11.4%,2.9%
O=c1[nH]c2cc3c(cc2cc1CN(CCN1CCOCC1)C(=S)NCC1CCCO1)OCO3 (stereo not drawn),·,·,3.7%,-2.3%,·,-4.2%,-7.3%,·
CC1CCCN(CCCNC(=O)c2cc(Sc3ccc(F)cc3)nc3ccccc23)C1 (stereo not drawn),1.1%,·,·,·,-3.8%,-15.2%,·,-17.4%[46.1 µM]
COc1ccc(-n2c(N3CCN(C)CC3)nc3sc4c(c3c2=O)CCCCC4)cc1,-4.5%,-10.6%,-10.4%,1.9%,-1.2%,8.8%,1.7%,-21.5%
O=C(COc1ccccc1)Nc1ccccc1C(=O)NCc1ccco1,-0.2%,-7.6%,-16.0%,-1.7%,-4.2%,-9.6%,5.4%,?
O=C(c1cc2nc(C3CC3)cc(C(F)(F)F)n2n1)N1CCCC1,14.9%,18.9%,-12.1%,-0.7%,-7.8%,-1.8%,-20.4%,-10.0%
O=C(COc1ccc(Br)cc1)NCCNC(=O)c1cccnc1,·,?,-2.4%,-5.6%,·,1.0%,-9.7%,3.9%
COc1ccc(C2C(C#N)=C(N)Oc3c2c(C)nn3-c2ccccc2)cc1Cn1nc(C)c([N+](=O)[O-])c1C (stereo not drawn),-12.2%,-8.5%&-8.5%[46.1 µM],?,-1.7%,?,?,?,7.9%
O=C(c1ccccc1)c1ccc(OCC(O)CNC2CCCc3ccccc32)cc1 (stereo not drawn),-4.2%,?,8.7%,-16.7%,0.1%,-22.5%,-15.2%,-13.7%
O=C(Oc1cccc(NC(=O)c2cccs2)c1)c1cccc(S(=O)(=O)N2CCCC2)c1,-2.5%,29.7%,?,-14.0%,?,12.9%,-14.5%,-1.7%
CCCN1CCN(C(=O)Nc2cccc(C(F)(F)F)c2)CC1,·,-16.4%[46.1 µM],3.8%,12.3%,·,9.0%,1.7%,-1.7%[46.1 µM]
COc1ccc(-n2c(N)c(C(=O)NCc3cccnc3)sc2=S)cc1,-2.9%,?,5.8%,-0.7%,-2.9%,-16.4%,0.4%,7.5%
N#C/C(=C\Nc1ccc(Cl)cc1)S(=O)(=O)c1ccccn1,·,-9.1%,5.1%,-0.1%,·,-2.2%,1.0%,-1.9%
CC1(O)CC(C)(C)C(C#N)C(=O)N1 (stereo not drawn),·,3.2%[46.1 µM],·,·,·,-11.6%,8.2%,-16.7%[46.1 µM]
Cc1ccccc1NC(=O)CSc1nnc(-c2ccco2)c(-c2ccco2)n1,25.1µM*,-6.1%,?,-6.4%,3.16µM*,-17.6%,3.7%,16.5%
NC(=O)c1nsc(C(=O)N(c2ccc(F)cc2)C(C(=O)NCC2CCCO2)c2c[nH]c3ccccc23)c1N (stereo not drawn),·,?,8.8%,1.2%,·,12.2%,-21.9%,·
Cc1ccc(-c2nnn(CC(=O)N(Cc3ccco3)C(C(=O)NC(C)(C)C)c3ccncc3)n2)o1 (stereo not drawn),·,9.0%[46.1 µM],2.2%,0.7%,·,-11.6%,-10.6%,-24.3%[46.1 µM]
CC(C)(C)N1C(=O)c2ccc(C(=O)Nc3ccc(O)cc3)cc2C1=O,·,?,4.4%,1.4%,·,?,-2.8%,-15.8%
O=C(CCC(=O)OCC(=O)c1ccc(Cl)cc1Cl)Nc1cccc2cccnc12,5.0%,?,1.3%,-1.6%,21.8%,-14.9%,-3.6%,6.4%

# (more compounds)
SMILES,Cruzain inh Det,Marburg entry inh,NS1 function inh,SARS PLpro yeast,Cruzain inh noDet,2A StopGo,RE007 growth inh,LASV entry inh
Cc1c(C)c2ccc(OC(C)C(=O)NCc3ccccn3)cc2oc1=O (stereo not drawn),·,·,2.5%,-3.3%,·,-5.1%,-5.1%,·
COc1ccccc1N1CCN(Cc2ccccc2Cl)CC1,4.7%,-25.0%,-5.0%,10.4%,1.9%,2.6%,-7.0%,-3.4%
Cc1ccc(C)c(N2CCN(S(=O)(=O)c3ccc4c(c3)C(C(C)C)C(=O)N4)CC2)c1 (stereo not drawn),-6.5%,·,·,·,-9.7%,?,·,-25.5%[46.1 µM]
COc1ccc(-c2nc(NC(=O)c3nc4nccc(C)n4n3)sc2C)cc1,·,-6.8%,·,-1.7%,·,10.9%,-12.8%,-0.1%
